RN4220 kill: S. aureus RN4220 growth inhibition; OD600, 16 h; inhibition, % (concentration not given with the values); hit rate 0.33% among 330,000; AID 1259311;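 active = z-score of -3 or lower and OD600 up to 0.18 on both plates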;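 also: plate controls were untreated cells for no effect and reference antibiotic for full effect; stock transfer was 100 nL into about 80 µL; one replicate is shown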
BJeLR lethal: BJeLR cell viability loss | BJeLR (HRASV12) viability, CellTiter-Glo ATP luminescence, 48 h; reference of the scale not given here | inhibition, % (concentration not given with the values) | hit rate 0.17% among 300,000 | AID 1554;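 active = replicate mean above 50%; inconclusive = above 50% but judged a plate artefact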;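 also: 50 nL library stock added to about 25 µL; numbers are from one replicate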
Sa ugtP lethal: growth inhibition of S. aureus ugtP deletion strain; AID 1259309; hit rate 0.54% among 330,000; growth inhibition, % (concentration not given with the values); S. aureus RN4220 ugtP deletion, OD600 growth, 16 h; some inactives read as strong as hits;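 active = z-score under -3 and OD600 up to 0.15 on both plates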;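 also: plate controls were untreated wells for no effect and antibiotic for full effect; wells of about 80 µL received 100 nL stock; the first replicate is given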
Autofluor counter: flagged as autofluorescent in microsphere protease counterscreen; compound autofluorescence counterscreen, microsphere flow cytometry; active compounds read high; fluorescence intensity (concentration not given with the values); hit rate 3.1% among 360,000;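 active = at least 3 SD above the mean of all compounds, about 16000 in these data; inconclusive = too few beads counted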;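 also: 100 nL of 1 mM stock went into each well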
Mtb hypoxia rep: reduces hypoxia-regulated biosensor signal in M. tuberculosis; hit rate 0.1% among 300,000; AID 1159583; M. tuberculosis hypoxia-regulated fluorescent reporter, fluorescence; fluorescence inhibition, % (no concentration beside the values);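 active = 35 to 45% if threefold the growth effect, above 45% if 1.5-fold the growth effect; inactive = the rest, general growth blockers included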;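 also: wells of about 50 µL received 100 nL stock; 0% = vehicle wells and 100% = reference inhibitor wells; whole bacteria with a GFP reporter of the hypoxia response; strong numbers were not always called active; many hits fall short of the cut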
PrP UTR inh: suppresses PrP 5' UTR mRNA reporter expression | inhibition, % (concentration not given with the values) | cell-based PrP 5' UTR mRNA reporter, plate reader | hit rate 0.35% among 340,000;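 active = every replicate at 50% or more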;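 also: 0 = median of the neutral control wells; tested in H4 reporter cells; numbers are from one replicate; inactives centre near -14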
Mtb hypoxia rep growth: further read-out of Mtb hypoxia rep, marked with its call; growth inhibition, %; measured here: M. tuberculosis growth (absorbance);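 0% = vehicle and 100% = reference antibiotic; read after six days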
* hit, by the source's call; ? = inconclusive; · = not tested or not shown; & = joins results of further samples.

SMILES	RN4220 kill	BJeLR lethal	Sa ugtP lethal	Autofluor counter	Mtb hypoxia rep	Mtb hypoxia rep growth	PrP UTR inh
O=C(CCCc1c[nH]c2ccccc12)NCCc1c[nH]c2ccccc12	-0.7	-9	-2	3227	-2	4	-36
COc1ccc(N2C(=O)CC(N(CCc3ccc(S(N)(=O)=O)cc3)C(=S)Nc3ccccc3)C2=O)cc1 (stereo unspecified)	-2.1	0	-7	4703	0	0	-14
CCOC(=O)c1c(C)oc2ccc(O)c(CN3CCCCC3)c12	4.4	10	-1	11446	9	8	-7
CCc1noc(C)c1C(=O)Nc1nc(-c2ccc(OC)cc2)cs1	3.9	3	8	5120	8	5	-3
CC(C)(C)NC(=S)NNC(=O)[C@H]1C[C@@H]1c1ccccc1	1.9	-5	2	3599	10	0	-44
c1ccc(CON=C(c2ccc(C3CC3)nc2)C2CC2)cc1	25	·	2	·	11	4	·
COc1ccccc1C(=O)N/N=C/c1cnc2ccccc2n1	·	-13	·	10310	·	·	-12
C/C(=N\Nc1cccc([N+](=O)[O-])c1)c1ccccc1O	·	-3	·	4544	·	·	-39
O=C1OCCC1(c1ccccc1)c1ccccc1	3.5	·	4	5688	8	3	-19
O=C(Nc1ccc2c(c1)OCCO2)c1ccc(CN2CCOCC2)cc1	1.0	-5	4	2739	·	·	-38
CC1(C)CC2(CCO1)N1CC3(C)CN2CC(C)(C1)C3=O (stereo unspecified)	16	-5	12	3014	10	0	-17
CCc1ccc(/C=C(\C#N)C(=O)NC2CCS(=O)(=O)C2)cc1 (stereo unspecified)	3.8	·	6	3131	5	5	-19
C=CCOC(=O)C1=CC(c2ccc(C(F)(F)F)cc2)C(CCCO)C(OCC)O1 (stereo unspecified)	5.7&2.3	·	0&-15	·	-2&-5	0&-2	·
CCOc1c2ccc(C(=O)NCCc3cccs3)cc2nn1CC	4.0	-3	5	3903	22	10	-67
CN(Cc1cccc(Cl)c1Cl)c1ccc(S(=O)(=O)N2CCCCC2)cc1[N+](=O)[O-]	2.2	-4	6	2535	7	5	-16
CSc1cc(-c2ccccc2)[nH]c(=O)c1C#N	6.3	4	-5	2435	6	13	-26
CCOc1ccccc1C(=O)Nc1c[nH]c(=O)[nH]c1=O	·	0	·	3997	·	·	-11
COc1cc2[nH]c(=O)n3nc(-c4ccccc4)nc3c2cc1OC	7.3	-15	-8	5210	8	-2	-43
CCOC(=O)Cn1c(CN2CCN(c3cccc(Cl)c3)CC2)nc2c1c(=O)[nH]c(=O)n2C	11	-8	-16	5659	-7	12	-18
C(=Nn1cnnc1)C1CCCCC1	21	·	18	·	-4	-9	·
O=C(COc1ncnc2ccccc12)NCCCN1CCCC1=O	2.1	3	1	6433	1	2	-14
COc1ccc(NC(=S)Nc2ccc3snnc3c2)cc1	3.8	1	4	3367	21	21	-42
O=C(NNC(=O)C12CC3CC(CC(C3)C1)C2)c1cccc([N+](=O)[O-])c1	4.4	-7	11	5405	-2	-1	-48
O=C(c1ccc(Cl)s1)N1CCN(c2ccccc2)CC1	5.8	6	7	5756	·	·	-8
Cc1occc(=O)c1OC(=O)Nc1ccccc1	-8.2	5	-8	2941	5	0	-34
CC1=C(N2CCCCC2)CCC1=O	4.7	-6	-13	3673	8	6	-28
COc1ccc(C2=NOC(C(=O)N(C)Cc3ccccc3)C2)cc1 (stereo unspecified)	8.7	7	-3	2230	11	5	-13
CCOc1ccc(NC(=S)N=Nc2c(O)[nH]c3ccccc23)cc1	-0.1	2	-9	4428	5	15	21
COc1cccc(COc2ccc3c(C)cc(=O)oc3c2)c1	7.5	-5	4	2933	11	8	-112
CC[C@@]12C(=O)N(c3cccc(Br)c3)C(=O)N1C(c1cccc(C)c1)C1C(=O)N(Cc3ccccc3)C(=O)C12 (stereo partly specified)	5.2	·	-18	·	3	1	·
CCOc1cc(/C=C2\C(=N)N3N=C(C)SC3=NC2=O)ccc1OCCOc1ccccc1	2.4	-1	-2	3728	9	7	-12
Cc1ccc(NC(=O)NC2CC(=O)N(c3ccc4c(c3)OCCO4)C2)cc1F (stereo unspecified)	-1.5	-3	-2	4385	3	9	-19
O=C(C1CCN(S(=O)(=O)c2ccccc2F)CC1)N1CCc2ccccc2C1	3.0	-3	0	4863	14	-5	-21
CCC(C)C1C(C#N)=C(N)Oc2n[nH]c(C)c21 (stereo unspecified)	4.7	-6	10	5713	6	4	-9
CCC1(CC)Cc2ccccc2C(CC(=O)N2CCOCC2)=N1	3.7	3	12	7684	16	6	-15
Cc1ccc([N+](=O)[O-])cc1NC(=O)c1ccccc1	-1.3	13	2	2507	8	17	-8
COCC(=O)NC1CC(C)(C)Cc2c1cnn2-c1ccc(F)cc1 (stereo unspecified)	-1.7	2	2	4095	-6	2	-10
Cc1ccc(C)c(OCC(=O)Nn2c(C)nc3ccccc3c2=O)c1	33	-14	12	?	-9	-1	1
O=C(N/N=C/c1c[nH]c2ccccc12)c1ccn(Cc2ccc(Cl)cc2Cl)n1	·	8	·	4704	·	·	-12
Cc1ccnc(-n2c(C)cc(/C=N/NC(=O)COc3cccc4cccnc34)c2C)c1	·	-7	·	4178	·	·	-29
O=C(CSc1nc2ccccc2c(=O)n1-c1ccccc1)NCc1ccco1	4.3	-2	1	4347	·	·	-21
CCN1CCN(C(c2ccc(F)cc2)c2nnnn2Cc2cccs2)CC1 (stereo unspecified)	-8.1	-6	-8	3111	4	14	-27
O=C(NCc1ccccc1)c1nc[nH]c1C(=O)N1CCc2ccccc2C1	5.0	·	6	8218	2	10	-3
CCOC(=O)c1ccc(S(=O)(=O)N2CCN(Cc3cc4c(cc3O)OCO4)CC2)cc1	4.5	·	10	2922	1	-3	10
O=C(Nc1ccccc1)Nc1nncs1	-1.6	-2	0	3113	·	·	-5
CCC12CN(C(=O)c3ccc([N+](=O)[O-])cc3)CC(CC)(CN(C(=O)c3ccc([N+](=O)[O-])cc3)C1)C2=O	0.5	7	8	6385	-4	3	·
CCN(C(=O)COC(=O)CCc1c[nH]c2ccccc12)c1c(N)n(Cc2ccccc2)c(=O)[nH]c1=O	3.4	7	4	?	-1	11	-21
O=S(=O)(Nc1ccccc1)c1ccc(-c2csnn2)cc1	7.6	-3	-5	·	1	6	-11
C1CN(CC2CCN(c3nc4nonc4nc3N3CCSCC3)CC2)CCO1	6.7	0	13	4285	8	2	-9
N#Cc1c(SCc2ccc(Cl)cc2)sc(C(=O)c2ccccc2)c1N	2.6	-11	-9	2314	·	·	-17
O=C(C1CCN(S(=O)(=O)c2ccc(Cl)c(C(F)(F)F)c2)CC1)N1CCC1	9.2	·	3	3514	3	2	-13
COc1ccc(-c2cc(-c3cccs3)c(C#N)c(SCC(=O)NCc3ccco3)n2)cc1	7.5	·	-2	8177	8	6	68*
COc1ccc(-c2nn(-c3ccccc3)cc2C=NO)cc1OC	11	·	-1	·	12	11	·
CC(C)c1ccc(-c2nnc(SCC(=O)NC3CC3)n2C)cc1	-1.3	7	-1	5246	3	-2	-21
O=C(c1ccc(-c2ccccc2)cc1)C1CCCN(C(=O)c2cncs2)C1 (stereo unspecified)	0.9	1	-2	3799	3	4	-23
Cc1ccc(NC(=O)CCc2ccc(S(=O)(=O)N3CCOCC3)cc2)c(Cl)c1	1.4	·	5	4230	-1	-4	-3
CCOc1ccc(-c2c(C(=O)NN=Cc3ccc(C)s3)nnn2-c2nonc2N)cc1	5.6	·	9	·	8	8	·
CN(Cc1c(F)cccc1Cl)C(=O)c1cccc(S(=O)(=O)NCc2ccccc2)c1	5.1	-2	-2	6061	-10	-3	-5
Cc1noc(C)c1CSc1ncnc2sc(C)c(C)c12	-9.9	-14	2	2448	11	8	-11
COc1ccc(OC)c(S(=O)(=O)NCC(c2ccco2)N2CCc3ccccc32)c1 (stereo unspecified)	5.4	4	10	?	-3	-7	6

Carrying on.
SMILES	RN4220 kill	BJeLR lethal	Sa ugtP lethal	Autofluor counter	Mtb hypoxia rep	Mtb hypoxia rep growth	PrP UTR inh
O=C(Nc1cccnc1)c1ccccc1-c1ccccc1	2.7	2	10	4623	2	1	-5
Cc1ncc(CSc2nccc(=O)[nH]2)c(CO)c1O	1.4	1	2	3603	8	1	-8
C/C(CC(=O)N1CCN(C=O)CC1)=N\NC(=O)c1cccc([N+](=O)[O-])c1	·	-5	·	4350	·	·	-10
CCOC(=O)c1c(C)c(C(=O)N(C)C2CCCCC2)c(C)n1C	7.0	0	3	11136	-5	0	·
Cc1ccc(C)c(Nc2nn3c(=O)c4ccc(C(=O)NCc5cccnc5)cc4nc3s2)c1	1.0	-4	-1	4903	-5	-12	1
CCn1c(=N)n(CCOc2ccc(OC)cc2)c2ccccc21	0.7	3	-1	2861	·	·	-17
CCN1C(=O)c2cccc3c(S(=O)(=O)NCC4CCCO4)ccc1c23 (stereo unspecified)	1.5	0	6	5233	4	-2	-23
O=C1c2ccccc2NC(c2ccc(Br)o2)N1O (stereo unspecified)	-7.3	·	-11	3661	2	-4	-34
CC1(c2ccc(Cl)cc2)NC(=O)N(CC(=O)NC2CCCCC2)C1=O (stereo unspecified)	1.7	·	2	4244	15	8	-22
CC(=O)N1CCN(c2ccc(NC(=O)c3cccc(OCc4ccccc4)c3)cc2)CC1	-0.8	12	4	4840	·	·	-7
O=C1NC(=O)c2c(Br)c(Br)c(Br)c(Br)c21	4.4	·	3	2862	4	3	-10
O=C(COC(=O)c1ccccc1NCCO)NCCc1ccccc1	0.9	1	-1	6222	-8	4	-25
CCOC(=O)c1ccccc1NC(=O)c1ccc(NS(C)(=O)=O)cc1	8.5	3	2	11333	0	7	-17
O=C(c1ccccc1F)N1CCN(c2ccccc2F)CC1	5.3	7	2	6824	12	13	-28
CC1(C)c2[nH]c3ccccc3c2CC2C(=O)N(Cc3ccccc3F)C(=O)N21 (stereo unspecified)	-0.9&2.2	·	-5&2	·	0&1	0&-1	·
COc1ccc(/C=C/C(=O)c2ccc(NC3=NCCCS3)cc2)cc1OC	5.2	·	5	4566	12	2	-30
CCOC(=O)COc1cc(Br)c(/C=N/Nc2ccccc2)cc1OC	·	0	·	4598	·	·	-7
CC(C)Cc1ccc(CN2CCCC(NC(=O)c3cccc(-n4cnnc4)c3)C2)cc1 (stereo unspecified)	·	-2	·	?	·	·	-4
Nc1ccccc1C(=O)OCc1ccc([N+](=O)[O-])cc1	6.5	4	-1	2618	5	4	-39
CCCNc1nc2nc3ccccn3c(=O)c2cc1C(=O)NCCN1CCOCC1	-1.9	-8	10	5571	3	6	-5
Cc1c(CC(=O)O)c(=O)oc2c(C)c(OCc3ccc(F)cc3F)ccc12	9.5	2	9	3764	9	7	-3
Cc1cc(NC(=O)CSc2nnc(-c3ccoc3C)o2)no1	-1.8	4	0	5763	3	5	0
c1ccc(OCc2ccc(CCCN3CCOCC3)cc2)cc1	2.3	8	10	5969	6	-6	-13
CC(=NCCCN1CCCCC1)c1c(O)n(Cc2ccccc2)c(=O)[nH]c1=O	2.8	-3	-1	3960	-2	7	-8
CSc1cccc(NC(=O)CNC(=O)C2CCCCC2)c1	-0.9	4	4	6291	4	5	-6
COc1ccc(NS(=O)(=O)c2cccc(NC(=O)NCCCl)c2)cc1	9.6	-9	-61	4544	-4	10	-16
CC1NC(=S)N(C2CCCCC2)C1=O (stereo unspecified)	0.2	-2	2	4734	-1	-8	-8
COC(=O)c1cccc(NC(=S)Nc2ccc(Cl)c(Cl)c2)c1	100*	2	90*	3387	-9	-1	-15

Entries of single compounds from above:
Results for Cc1ccc([N+](=O)[O-])cc1NC(=O)c1ccccc1 → RN4220 kill = -1.3; BJeLR lethal = 13; Sa ugtP lethal = 2; Autofluor counter = 2507; Mtb hypoxia rep = 8; Mtb hypoxia rep growth = 17; PrP UTR inh = -8
Results for CSc1cccc(NC(=O)CNC(=O)C2CCCCC2)c1 → RN4220 kill = -0.9; BJeLR lethal = 4; Sa ugtP lethal = 4; Autofluor counter = 6291; Mtb hypoxia rep = 4; Mtb hypoxia rep growth = 5; PrP UTR inh = -6
Results for Cc1ccc(C)c(Nc2nn3c(=O)c4ccc(C(=O)NCc5cccnc5)cc4nc3s2)c1 → RN4220 kill = 1.0; BJeLR lethal = -4; Sa ugtP lethal = -1; Autofluor counter = 4903; Mtb hypoxia rep = -5; Mtb hypoxia rep growth = -12; PrP UTR inh = 1

Rows are unselected. Share with any hit: about 3.9%.
